Screening results: PubChem, National Center for Advancing Translational Sciences (NCATS)
2A StopGo = High Throughput Screening for Foot and Mouth Disease Virus Antivirals. human cells with a luciferase reporter of 2A StopGo recoding; control for the full effect not named in the record. Potency, µM (series often up to 57.9 µM), inactives show at the top dose signal change, negative = less light. actives 1.2% (n = 410,000); active = well fitted falling curve with a large enough effect; inconclusive = small, poorly fitted or top-dose-only effect; inactive = no such curve, though single readings can be large or run the other way; tested in HEK293T cells; further: on the % scale 0 is the no-effect control and ±100 the full control effect; nearly all actives have a fitted effect of over 45% in size; luciferase light after 4 h
NS1 inh = qHTS Assay for Inhibitors of Influenza NS1 Protein Function. S. cerevisiae slowed by influenza A NS1, growth recovery by OD600. Potency, µM (highest dose often 46.1 µM), inactives show at the top dose activity, positive = more growth. actives 0.4% (n = 270,000). AID 2326, 2010; further: actives are rising curves; nearly all actives have a fitted effect of over 50% in size
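In this qHTS, NS1 from influenza A is expressed in budding yeast, where it slows growth. Cells are switched from glucose to 2% galactose medium (pH 6.0, -URA), treated with compound, and growth recovery is read at OD600.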
Lassa entry inh = qHTS for Inhibitors of binding or entry into cells for Lassa Virus. Lassa virus pseudotype entry inhibition, cell reporter; control for the full effect not named in the record. Potency, µM (top dose mostly 37.9 µM), for the others: at the highest dose activity change, negative = inhibition, usual class: inhibitors. actives 1.2% (n = 300,000). AID 540256, 2011; active means well fitted inhibition curve with a large enough effect; inconclusive means small, poorly fitted or top-dose-only effect, or effect the other way; inactive means flat fitted curve, though single readings scatter; tested in HEK293 cells; further: on the % scale 0 is the no-effect control and ±100 the full control effect; nearly all actives have a fitted effect of over 50% in size; luciferase read-out
RE007 growth inh = qHTS Assay for Inhibitors of the HIV-1 protein Vpr. S. pombe RE007 Vpr strain, BacTiter-Glo ATP luminescence, 24 h; control for the full effect not named in the record. Potency, µM (top dose mostly 92.2 µM), for inactives: at the highest dose activity change, negative = less growth. actives 0.21% (n = 360,000); active = well fitted falling curve with a large enough effect; inconclusive = small, poorly fitted or top-dose-only effect; inactive = no such curve, though single readings can be large or run the other way;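 further: on the % scale 0 is the no-effect control and ±100 the full control effect; nearly all actives have a fitted effect of over 50% in size; the assay follows cell death caused by Vpr and the record does not say whether a fall means rescue or toxicity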
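Fission yeast strain RE007, carrying one chromosomally integrated HIV-1 vpr copy, was seeded at OD 0.01 in PMG+AL medium with 23 nL pinned compound. After 24 h at 30 °C and 99% humidity, viability was read by BacTiter-Glo luminescence.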
Cruzain inh noDet = qHTS Assay for Promiscuous and Specific Inhibitors of Cruzain (without detergent) | Cruzipain (Trypanosoma cruzi), P25779 | purified cruzain, Z-FR-AMC fluorescence, no detergent | Potency, µM, inactives show max response, negative = inhibition, actives largely listed as inhibitors | actives 2.3% (n = 200,000) | AID 1476, 2009; active means well fitted curve in the direction sought with a large enough effect; inconclusive means small, poorly fitted or top-dose-only effect, or another doubt; inactive means no such curve, though single readings can be large; an effect the other way counts as inactive or inconclusive;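 further: plate controls were enzyme without inhibitor for no effect and buffer without enzyme for full effect; nearly all actives have a fitted effect of over 40% in size; top concentration of the series not given in the record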
Target sequence (P25779 123-467 limits assumed): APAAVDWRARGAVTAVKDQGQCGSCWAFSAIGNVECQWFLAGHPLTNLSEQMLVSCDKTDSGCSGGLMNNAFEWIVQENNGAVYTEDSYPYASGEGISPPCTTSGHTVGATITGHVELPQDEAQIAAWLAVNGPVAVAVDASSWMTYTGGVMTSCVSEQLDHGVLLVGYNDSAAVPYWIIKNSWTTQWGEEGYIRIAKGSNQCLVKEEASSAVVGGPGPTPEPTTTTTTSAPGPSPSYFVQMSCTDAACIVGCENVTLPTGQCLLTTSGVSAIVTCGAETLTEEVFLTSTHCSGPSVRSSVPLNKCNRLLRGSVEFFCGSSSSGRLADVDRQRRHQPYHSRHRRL
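Purified cruzain at 1.5 nM, pre-incubated 15 min with compound at room temperature in 100 mM sodium acetate pH 5.5, 5 mM DTT, 0.00005% Triton X-100. Reaction started with 2 uM Z-FR-AMC; AMC fluorescence increase over 60 s gives rate.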
Cruzain Triton = qHTS Assay for Promiscuous and Specific Inhibitors of Cruzain (with detergent) | Cruzipain (Trypanosoma cruzi), P25779 | purified cruzain, Z-FR-AMC fluorescence, 0.01% Triton | Potency, µM, inactives show max response, negative = inhibition, hits mostly inhibitors | actives 0.43% (n = 200,000) | AID 1478, 2009; active means well fitted curve in the direction sought with a large enough effect; inconclusive means small, poorly fitted or top-dose-only effect, or another doubt; inactive means no such curve, though single readings can be large; an effect the other way counts as inactive or inconclusive;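 further: plate controls were neutral wells for no effect and buffer without enzyme for full effect; nearly all actives have a fitted effect of over 40% in size; top concentration of the series not given in the record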
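Compounds were screened in titration against cruzain (1.5 nM) with 0.01% Triton X-100 to counter colloidal aggregation. Activity was the AMC fluorescence increase over 60 s after adding 2 uM Z-FR-AMC at pH 5.5.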
Marburg entry inh = qHTS for inhibitors of binding or entry into cells for Marburg Virus; Marburg virus pseudotyped entry inhibition, cell reporter; control for the full effect not named in the record; about a third of the inactives were read at about 46 µM; Potency, µM (doses to about 37.8 µM), without a hit: top-dose activity change, negative = inhibition, actives largely listed as inhibitors; actives 1.8% (n = 300,000); AID 540276, 2011; active = well fitted inhibition curve with a large enough effect; inconclusive = small, poorly fitted or top-dose-only effect, or effect the other way; inactive = flat fitted curve, though single readings scatter; tested in HEK293 cells; about a fifth of its hits are not listed in these tables; further: on the % scale 0 is the no-effect control and ±100 the full control effect; luciferase read-out
SARS PLP yeast = qHTS of Yeast-based Assay for SARS-CoV PLP; actives 0.19% (n = 330,000); Potency, µM (top dose mostly 32.9 µM), without a hit: top-dose activity, positive = growth rescue; S. cerevisiae expressing SARS-CoV PLpro, growth rescue; control for the full effect not named in the record; further: 0% is about no effect; nearly all actives have a fitted effect of over 55% in size; growth read by luminescence after 48 h
Active calls of the source: *; u = inconclusive; x = not tested or not shown; [ ] = dose if it differs, or a comment. Unless noted, the call rests on the fitted dose curve; in most records, active means well fitted rising curve with a large enough effect; inconclusive means small, poorly fitted or top-dose-only effect; inactive means no such curve, though single readings can be large or run the other way. Potency means the concentration at half of the fitted maximal effect.

SMILES	2A StopGo	NS1 inh	Lassa entry inh	RE007 growth inh	Cruzain inh noDet	Cruzain Triton	Marburg entry inh	SARS PLP yeast
COc1cc(NS(=O)(=O)c2ccc(NC(=S)NC(=O)c3ccc(F)cc3)cc2)nc(OC)n1	43.9%[activator]	22.0%	-0.6%	-13.1%	x	x	27.8%[46.1 µM]	-1.3%
CN(Cc1ccccc1)C(=O)CCS(=O)(=O)c1ccc2c(c1)NC(=O)CS2	-26.2%	-18.9%	-2.2%[46.1 µM]	10.5%	x	x	14.1%[46.1 µM]	3.1%
COc1ccc(OC)c(NC(=O)C2CCN(C(=O)c3cccs3)CC2)c1	-14.1%	-3.8%	-2.2%	-10.9%	x	x	3.1%[46.1 µM]	0.0%
CC(Oc1ccc(Br)cc1)C(=O)Nc1cc(S(=O)(=O)N2CCOCC2)ccc1N1CCCC1 (stereo not given)	-17.5%	x	u	-17.1%	x	x	-36.3%[46.1 µM]	2.5%
COc1ccc(CNC(=S)NCc2ccc(F)cc2)cc1	3.7%	-15.6%	x	-7.1%	x	x	x	16.3%
CCC1=C(OC(=O)N(CC)CC)N2C(=O)OC(=NCCOC)[C@]2(Cc2ccccc2)[C@H]2C1=CC[C@H]1C(=O)N(C)C(=O)[C@H]12	0.6%	3.7%	x	-24.2%	u	2.8%	x	2.3%
O=C(Nc1cccc2ccccc12)C1CCN(C(=O)Cc2ccccc2)CC1	u	-2.1%	5.6%	-14.8%	5.1%	-5.6%	13.1%	-1.4%
CC(C)c1cccc(C(C)C)c1NC(=S)Nc1cccc(Cl)c1	-26.9%	-3.7%	u	-0.8%	x	x	1.9%[14.2 µM]	-0.6%
CCOC(=O)c1ccc(N2C(=O)CC(C(=O)OC)=C2C)cc1	-11.8%	u	-4.6%	2.8%	4.3%	-6.2%	-23.3%[46.1 µM]	-1.0%
O=C(NCCc1nnc2ccc(NCC3CCCO3)nn12)c1ccccc1 (stereo not given)	7.4%	x	x	3.4%	x	x	14.3%[46.1 µM]	1.5%
CCn1c(CCNC(=O)c2cccs2)nnc1SCC(=O)Nc1ccc(Cl)cc1	2.9%	-8.8%	5.6%	22.1%	12.0%	-3.4%	12.1%	-9.1%
CCOc1ccc(NC(=O)CN(C)C(=O)C2COc3ccccc3O2)cc1OCC (stereo not given)	5.1%	x	-24.5%[46.1 µM]	-26.3%	x	x	18.8%[46.1 µM]	-3.1%
O=C1CC(C(=O)Nc2cccc(Cl)c2)n2ncnc2N1 (stereo not given)	-5.8%	x	0.4%[46.1 µM]	4.4%	x	x	u	-5.8%
COc1ccccc1CNCC(=O)Nc1ccc(C#N)cc1	8.3%	2.3%	4.8%[46.1 µM]	-26.8%	x	x	-18.4%[46.1 µM]	1.0%
CCN(CC)C(=O)CSc1nc2c(sc(=S)n2-c2ccccc2OC)c(=O)n1-c1ccccc1	-26.5%	0.3%	u	7.1%	x	x	u	1.5%
O=C1OCCN1C(=O)[C@H]1[C@H](c2ccccc2)C(c2cccc(Cl)c2)=NN1c1ccccc1	-30.0%	x	x	-0.8%	u	-8.8%	x	u
Cc1ccc(OCCC(=O)OCC(=O)N2c3ccccc3CC2C)cc1 (stereo not given)	-18.2%	-53.5%	-2.9%	-16.9%	3.9%	-8.4%	8.6%	x
COc1cc(N)c(Cl)cc1C(=O)OCC(=O)NC(=O)NCc1ccco1	-4.0%	x	-29.8%	6.7%	x	x	-0.3%	-9.3%
CC(=O)c1cccc(CN2CCC(n3nccc3NC(=O)CCc3ccccc3)CC2)c1	u	7.8%	0.7%	-6.8%	x	x	-7.6%	1.1%
O=C(c1ccc(Cl)c(S(=O)(=O)N2CCOCC2)c1)N1CCCCC1	6.6%	-0.9%	3.3%[46.1 µM]	7.7%	x	x	-1.0%[46.1 µM]	-2.1%
COCC(C)N=Cc1c(O)[nH]c2ccccc12 (stereo not given)	x	0.2%	-2.0%	2.8%	0.2%	-0.8%	3.4%	-2.3%
CCOc1ccc(C(=O)NC(=S)Nc2ccccn2)cc1[N+](=O)[O-]	17.2%	4.7%	15.4%	3.0%	u	-0.9%	-7.3%[46.1 µM]	-2.1%
Cc1ccc(NC(=O)CSc2nnc3ccccn23)cc1	47.3%[activator]	2.5%	x	-7.4%	x	x	x	-0.1%
Cc1cccc(N=C2NC(=O)/C(=C/c3cccnc3)S2)c1	-23.8%	2.8%	x	2.6%	x	x	x	1.5%
COc1cc(CN2CCN(C(C)C)C(CCO)C2)ccc1OCc1ccccc1 (stereo not given)	21.8%	2.4%	x	-9.3%	x	x	x	-1.5%

Next structures follow:
SMILES	2A StopGo	NS1 inh	Lassa entry inh	RE007 growth inh	Cruzain inh noDet	Cruzain Triton	Marburg entry inh	SARS PLP yeast
COCC(=O)n1nc(-c2ccc(C)cc2)nc1NCc1ccc(F)cc1	47.4%[activator]	x	-6.8%	-12.8%	x	x	9.7%[46.1 µM]	-0.9%
Cc1cc(C([O-])=C(C(=S)Nc2ccccc2)[n+]2ccccc2)c(C)n1-c1ccccc1	-17.5%	x	12.8%[46.1 µM]	-19.9%	x	x	u	x
O=C1NC(=O)N(Cc2ccc(F)cc2)C(=O)/C1=C\c1ccc([N+](=O)[O-])s1	-20.7%	-7.1%	-4.1%[46.1 µM]	u	x	x	-10.9%[46.1 µM]	1.2%
Cc1cc(C(F)F)n2nc(C(=O)Nc3sc4c(c3C#N)CCC(C)C4)nc2n1 (stereo not given)	15.4%	2.7%	2.5%	-23.0%	u	-9.8%	6.1%	-2.4%
C=CCN1C(=O)c2ccc(C(=O)N(CCOC)c3c(N)n(CCCC)c(=O)[nH]c3=O)cc2C1=O	-18.7%	x	-12.6%[46.1 µM]	7.9%	x	x	12.0%	-1.4%
CCN1CCN(C(=O)CCNC(=O)Cn2cnc3ccccc3c2=O)CC1	1.2%	-1.0%	0.9%	4.5%	x	x	17.4%[46.1 µM]	-1.0%
O=S(=O)(c1ccc(Br)cc1)N1CCC(c2nc3ccccc3[nH]2)CC1	-8.3%	-0.2%	-6.5%[46.1 µM]	-20.3%	x	x	u	-2.6%
Cc1cccc(C(=O)OCC(=O)NCc2ccco2)c1	-6.1%	x	0.7%	-2.1%	x	x	20.8%	-1.0%
Cc1ccc(C)c(NC(=O)CCc2c(C)nn(-c3ccc(N4CCCCC4)nn3)c2C)c1	-17.5%	-11.4%	u	-0.8%	x	x	u	-3.6%
CCOc1ccc(C(=O)Nc2ccc(S(=O)(=O)Nc3nc(C)cc(C)n3)cc2)cc1OC	32.3%[activator]	x	6.1%[46.1 µM]	x	u	-3.3%	u	x
CC1CCCCN1C(=O)Cn1nnc(-c2cccnc2)n1 (stereo not given)	x	10.1%	2.0%	-15.2%	-7.1%	-1.8%	7.2%	-16.0%
CCOC(=O)C1CCN(C(=O)c2ccccc2NC(=O)c2ccc(Cl)cc2)CC1	14.3%	-12.8%	24.8%	-5.0%	-3.1%	-2.9%	-1.6%	2.0%
Cn1cnnc1SCC(=O)c1ccc2c(c1)OCO2	13.0%	12.9%	4.6%	4.2%	-17.7%	-6.8%	u	2.6%
CCCN(CC1CC1)C(=O)CSc1ncnc2sc(C)c(C)c12	u	-7.6%	-5.7%	9.9%	u	-3.0%	1.6%	1.7%
CCOc1ccccc1NC(=O)/C=C/c1ccc(S(=O)(=O)N2CCOCC2)cc1	-8.1%	x	u	9.5%	x	x	-7.4%	-1.7%
CC(=O)C1=NOC(CNc2ncc(C(F)(F)F)cc2Cl)C1 (stereo not given)	9.7%	-8.0%	-1.7%[46.1 µM]	u	x	x	7.2%[46.1 µM]	-1.0%
CCOC(=O)CSc1[nH]c2cc(OC)ccc2c1[N+](=O)[O-]	-21.8%	4.8%	-0.7%	2.6%	x	x	u	-0.1%
Cc1ccc(N2C(=O)NC(=O)C(CCc3ccccn3)(Cc3ccc(F)cc3)C2=O)cc1 (stereo not given)	-3.2%	-1.1%	-2.4%	-2.4%	x	x	-12.8%[46.1 µM]	-0.4%
CCN(CC)S(=O)(=O)c1cccc(C(=O)N[C@H](C(=O)Nc2nc3ccc(F)cc3s2)C(C)C)c1	4.4%	1.1%	u	-12.5%	3.1%	-3.7%	u	10.7%
COc1ccc2c(c1)[nH]c(=O)c1sc3ccccc3c12	8.6%	-9.3%	-12.5%	30.0%	u	-0.7%	-16.0%	-17.0%
Cc1cc2nn(-c3ccccc3)nc2cc1NC(=O)c1cccs1	60.3%[activator]	-4.2%	-3.7%	6.5%	5.0%	-7.6%	u	-0.1%
CC1CN(C(=O)CCC(=O)NCCCN2CCN(Cc3ccccc3)CC2)c2cc(Cl)ccc2O1 (stereo not given)	0.3%	-6.9%	x	-11.6%	x	x	x	-3.0%

Some of the entries so far, with bars between the fields:
smiles | 2A StopGo | NS1 inh | Lassa entry inh | RE007 growth inh | Cruzain inh noDet | Cruzain Triton | Marburg entry inh | SARS PLP yeast
CCOC(=O)C1CCN(C(=O)c2ccccc2NC(=O)c2ccc(Cl)cc2)CC1 | 14.3% | -12.8% | 24.8% | -5.0% | -3.1% | -2.9% | -1.6% | 2.0%
Cn1cnnc1SCC(=O)c1ccc2c(c1)OCO2 | 13.0% | 12.9% | 4.6% | 4.2% | -17.7% | -6.8% | u | 2.6%
CCCN(CC1CC1)C(=O)CSc1ncnc2sc(C)c(C)c12 | u | -7.6% | -5.7% | 9.9% | u | -3.0% | 1.6% | 1.7%
CCOc1ccccc1NC(=O)/C=C/c1ccc(S(=O)(=O)N2CCOCC2)cc1 | -8.1% | x | u | 9.5% | x | x | -7.4% | -1.7%
CC(=O)C1=NOC(CNc2ncc(C(F)(F)F)cc2Cl)C1 (stereo not given) | 9.7% | -8.0% | -1.7%[46.1 µM] | u | x | x | 7.2%[46.1 µM] | -1.0%
